# Vaccinia mCherry – vaccinia inhibition (mCherry reporter) | hit rate 0.63% among 310,000 | Potency, µM (top dose mostly 36.5 µM), for the others: at the top dose activity change, negative = inhibition, most hits filed as inhibitors | Vaccinia virus mCherry reporter infection, fluorescence; about a quarter of the inactives have no number; active = well fitted inhibition curve with a large enough effect; inconclusive = small, poorly fitted or top-dose-only effect; inactive = no such curve, though single readings can be large or run the other way; tested in A549 cells; further: nearly all actives have a fitted effect of over 35% in size; inactives centre near -10
# VACV Venus inh – vaccinia inhibition (Venus reporter); Vaccinia virus Venus reporter expression, fluorescence; Potency, µM (series often up to 36.5 µM), for the others: at the top dose activity change, negative = inhibition, most hits filed as inhibitors; hit rate 0.46% among 330,000; active means well fitted inhibition curve with a large enough effect; inconclusive means small, poorly fitted or top-dose-only effect; inactive means no such curve, though single readings can be large or run the other way; tested in A549 cells; further: nearly all actives have a fitted effect of over 30% in size; inactives centre near -10
# * marks the source's active call; other numbers are inactive results; i = inactive; ? = inconclusive; nt = no result given; & = joins results of further samples; [ ] = dose if it differs, or a comment. On the % scale 0 is the no-effect control and ±100 the full control effect; potency means the concentration at half of the fitted maximal effect.
compound | Vaccinia mCherry | VACV Venus inh
N/C(=N\N=C\c1ccco1)SC1CC(=O)N(c2ccc(C(=O)O)cc2)C1=O (stereo not drawn) | i | -10.2%
COc1ccc(C2Nc3ccccc3NC3=C2C(=O)CC(C)(C)C3)cc1OC (stereo not drawn) | -18.2% | 9.1%
COc1ccc([N+](=O)[O-])cc1NC(=O)c1ccco1 | -3.2% | -7.1%
COc1cccc(CN2C(=O)c3ccccc3C2C(=O)NCC2CCCO2)c1 (stereo not drawn) | -17.2% | -12.8%
COc1ccc(NS(=O)(=O)c2ccc(OC)c(NC(=O)CCC3CCCCC3)c2)cc1 | -14.0% | -6.1%
CCCCOP(=O)(OCCCC)C(O)c1ccc(Br)cc1 (stereo not drawn) | -13.2% | -9.8%
c1coc(-c2ccnc(-n3cccc3)n2)c1 | i | -10.5%
CCC(C)NCCOCCOc1ccc(Cl)c2ccccc12 (stereo not drawn) | ? | 28.2µM*
CC(C)N1CCN(C(=O)c2ccc(NC(=O)c3ccc(Br)o3)cc2)CC1 | -17.4% | -5.2%
COc1cccc(CN2CCN(Cc3ccc(O)c(OC)c3)CC2CCO)c1 (stereo not drawn) | -23.9% | -11.5%
[O-][n+]1onc2c1CCc1nnc(-c3ccccc3)cc1-2 | ? | ?
COC(=O)c1ccc(CSc2nnc(-c3ccncc3)n2Cc2ccccc2)o1 | -0.5% | -3.9%
COc1ccc(Cl)cc1NC(=O)CN(C)C(=O)C1CC1 | -8.1% | -10.2%
Cc1cccc(C)c1NC(=O)NCCCN1CCN(c2ccccc2)CC1 | i | -10.9%
CN(Cc1ccc(Cl)cc1Cl)C(=O)c1cccc(S(=O)(=O)NCc2ccccc2)c1 | ? | -23.8%
COc1cccc(OC)c1-c1nn2c(-c3n[nH]c4c3CCC4)nnc2s1 | ? | ?
Cc1ccc([N+](=O)[O-])cc1NC(=O)CSc1nncn1-c1ccccn1 | -11.5% | -3.0%
CC1=C/C(=C\c2ccc(N(C)C)cc2)c2ccccc21 | -20.8% | -16.0%
COC(=O)C1C(=O)C=C(Nc2ccc(F)cc2F)CC1c1ccccc1 (stereo not drawn) | -14.1% | -2.9%
COc1cc(OC)cc(C(=O)Nc2cc(-c3nc4cc(Cl)ccc4o3)ccc2Cl)c1 | 5.0% | 0.5%
COc1cc(C2C(C(=O)Nc3ccc(F)cc3)=C(C)Nc3nc(CCCO)nn32)cc(OC)c1OC (stereo not drawn) | -5.1% | -2.8%
COc1ccc2ncc(S(=O)(=O)c3ccccc3)c(N3CCN(c4ccccc4)CC3)c2c1 | -29.3% | -15.7%
COc1cc(C(=O)N2CCc3c([nH]c4ccccc34)C2c2ccc(F)cc2)cc(OC)c1OC (stereo not drawn) | -16.5% | -6.8%
Cc1nc2cccnc2n1-c1cccc(C(=O)N2CCN(c3cccc(Cl)c3)CC2)c1 | ? | -27.6%
O=C(NCCOc1ccccc1)C1Nc2ccc(C(F)(F)F)cc2C2c3ccccc3CC12 (stereo not drawn) | ? | -28.6%
Cc1nnc(Sc2cc(NCCO)c([N+](=O)[O-])c3nonc23)s1 | i | -11.9%
Cc1ccc(N(Cc2ccccc2)C(=O)Cc2ccc(S(=O)(=O)N3CCOCC3)s2)cc1 | i | -14.2%
Cc1ccc(OCCOCCOc2cccc3cccnc23)c(Br)c1 | i | -4.1%
CC1(OC(=O)C2CCCC2)C(=O)C=C2C=C(c3ccsc3)N(CCCCO)C=C2C1=O (stereo not drawn) | -7.2% | -11.4%
CN(Cc1nc(C(c2ccccc2)c2ccccc2)no1)CC1COCCO1 (stereo not drawn) | 8.3% | -3.3%

# Rewritten as labelled records: entries from further up.
Cc1ccc(N(Cc2ccccc2)C(=O)Cc2ccc(S(=O)(=O)N3CCOCC3)s2)cc1
  Vaccinia mCherry: i
  VACV Venus inh: -14.2%

Cc1ccc(OCCOCCOc2cccc3cccnc23)c(Br)c1
  Vaccinia mCherry: i
  VACV Venus inh: -4.1%

CC1(OC(=O)C2CCCC2)C(=O)C=C2C=C(c3ccsc3)N(CCCCO)C=C2C1=O (stereo not drawn)
  Vaccinia mCherry: -7.2%
  VACV Venus inh: -11.4%

CN(Cc1nc(C(c2ccccc2)c2ccccc2)no1)CC1COCCO1 (stereo not drawn)
  Vaccinia mCherry: 8.3%
  VACV Venus inh: -3.3%

# Other entries follow.
compound | Vaccinia mCherry | VACV Venus inh
CC(C)=CCC/C(C)=C/CNC(=O)CC1C[C@H](C(=O)N2CCCCC2)[C@@]2(C)c3[nH]c4ccccc4c3CCN2C1=O (stereo partly drawn) | i | 0.0%
CCOc1ccc(NC(=O)CCNS(=O)(=O)c2cccc3nsnc23)cc1 | -4.2%&-3.8% | -7.9%&6.7%
Cc1ccc(S(=O)(=O)N2CCCC2C(=O)NC2=NCCS2)cc1 (stereo not drawn) | nt | -4.8%
COc1ccc(CNC(=O)c2nc(SC(C)C)ncc2Cl)cc1 | -12.5% | -5.5%
Cc1ccc(C(=O)NCC(=O)NC2CCCCCC2)cc1 | -23.7% | -22.3%
CC(NC(=O)c1cc2cc(Br)ccc2oc1=N)c1ccccc1 (stereo not drawn) | i | -7.8%
COc1ccc(OC)c(S(=O)(=O)N2CCCCCC2)c1 | nt | -12.4%
Cc1ccc(-n2ncc(C(=O)NCCN3CCN(C)CC3)c2C2CCN(C(=O)OC(C)(C)C)CC2)cc1C | -16.6% | -5.6%
COc1ccccc1/C=C/c1nc(C#N)c(N(C)C)o1 | -9.6%[7.34 µM] | -4.0%[7.34 µM]
O=C(NCCCSc1ccccc1)c1ccc(=O)[nH]c1 | -2.1% | -13.6%
Cc1ccc(-c2cc(C(F)(F)F)c(C#N)c(SCC(=O)O)n2)cc1 | 10.9%&-0.7% | 9.1%&-13.1%
CN(CC1COc2ccccc2O1)C(=O)CSc1ncccn1 (stereo not drawn) | -23.9% | -7.0%
Cc1cccc(S(=O)(=O)N(C)C[C@@H]2OCc3cn(nn3)CCCC(=O)N([C@@H](C)CO)C[C@H]2C)c1 | i | 1.5%
Cc1nn(-c2ccccc2)c(C)c1C(=O)NCc1cccs1 | -11.0% | -12.9%
CCOC(=O)CCC(NC(=O)c1ccccc1C(=O)NC(CCC(=O)OCC)C(=O)OCC)C(=O)OCC (stereo not drawn) | -7.5% | -13.7%
CC1(C)C2CCC(C2)C1(C)NC(=O)CNC1CCCCC1 (stereo not drawn) | -19.8% | -19.4%
CCn1c(SCC(=O)N2CCCC2)nc2c(c1=O)SC(C)C2 (stereo not drawn) | 8.0% | 7.1%
COC(=O)c1noc(C)c1-c1ccnn1C(=O)c1ccc(C)cc1 | i[7.34 µM] | -12.2%[7.34 µM]
C#CC1(NC(=O)NCCCC)CCCCC1 | -5.7% | -13.1%
COc1ccc(S(=O)(=O)c2c(SC)nn(CC(=O)Nc3ccc(C)c(Cl)c3)c2N)cc1 | ? | -22.8%
Cc1occc1C(=O)NNC(=O)CN1C(=O)NC(C)(c2ccccc2)C1=O (stereo not drawn) | -18.0% | -9.6%
NC(=NC(=O)c1ccc(OCC(F)(F)F)nc1)c1ccc(Cl)cc1 | i | -26.6%
Nc1ccc(C(=O)N2CCN(S(=O)(=O)c3ccc(Cl)s3)CC2)cc1[N+](=O)[O-] | i | -25.7%
COC(=O)c1cc(CNC(=O)c2ccc3ncccc3c2)cc(NC(=O)c2ccccc2Cl)c1 | -1.2% | -5.9%
Cc1cccc(NC(=O)CCS(=O)(=O)c2ccc3c(c2)n(C)c(=O)c(=O)n3C)c1C | -5.2% | -11.4%
O=C(COC(=O)c1ccc(Cl)nc1)NCc1ccc(F)cc1 | -5.1% | -10.7%
CCCCOn1c(C)c(C(=O)OCC)c2c3no[n+]([O-])c3ccc21 | -10.2% | -4.5%
COC(=O)c1ccc(C(=O)NC(=S)Nc2nc3c(s2)CC(C)CC3)cc1 (stereo not drawn) | -10.9% | -3.1%
O=C(NC(=S)Nc1ccc(S(=O)(=O)N2CCOCC2)cc1)c1ccccc1[N+](=O)[O-] | -6.6% | -1.8%
COc1ccc(OCCCC(=O)NCc2ccco2)cc1 | i | -14.9%

# Complete entries from above:
# COC(=O)c1cc(CNC(=O)c2ccc3ncccc3c2)cc(NC(=O)c2ccccc2Cl)c1 is entered as Vaccinia mCherry: -1.2%; VACV Venus inh: -5.9%
# Cc1ccc(S(=O)(=O)N2CCCC2C(=O)NC2=NCCS2)cc1 (stereo not drawn) is entered as Vaccinia mCherry: nt; VACV Venus inh: -4.8%

# Next part
SMILES | Vaccinia mCherry | VACV Venus inh
O=C(/C=C/c1ccc(Cl)c([N+](=O)[O-])c1)Nc1ccc(N2CCCC2)c(Cl)c1 | i | 11.0%
COc1cccc(/C=C/C(=O)NCCc2ccc(OC)c(OC)c2)c1 | -16.2% | -9.9%
O=C(N/N=C/c1cccc(Cl)c1)C1CCCC1 | -12.8% | -1.7%
COc1ccc(-c2nn(-c3ccccc3)cc2C(=O)Nc2nccs2)cc1OC | ? | ?
COc1ccc(NC(=O)C(=O)Nc2ccc3nc4n(c(=O)c3c2)CCCCC4)c(OC)c1 | -1.1% | -1.0%
CCOC(=O)N1CCN(CC(=O)c2ccc3c(c2)CCN3)CC1 | -3.0% | -16.7%
COc1ccccc1NC(=O)C1=C(C)Nc2c(C(=O)Nc3cccc(C)c3)cnn2C1c1ccccc1C (stereo not drawn) | i | -15.8%
CCOc1ccc(CCNC(=O)COC(=O)CCS(=O)(=O)c2ccc(C)cc2)cc1OCC | -5.7% | -12.7%
c1ccc2c(c1)CNc1ccccc1O2 | nt | -11.5%
O=C1NC(Cc2ccccc2)C(=O)N1Cc1ccccc1 (stereo not drawn) | -8.8% | -13.7%
COc1ccc(NC(=O)c2cc(-c3sc(NC(=O)c4ccccc4)nc3C)n(Cc3ccccc3)n2)cc1 | -12.8% | -9.3%
CCCCN1CC(N2CCCCC2)CS1(=O)=O (stereo not drawn) | 48.2%[activator] | -5.2%
CCCc1cc(=O)n2[nH]c(NCc3ccc(OC)cc3)nc2n1 | -15.8% | -3.1%
COc1ccc(C(=O)NC2CC(C)(C)Cc3c2cnn3-c2ccccc2C)o1 (stereo not drawn) | 0.8% | -0.3%
O=C(/C(=C/O)N=Nc1ccccc1Cl)c1ccccc1 | -21.6% | -21.2%
CN(/N=C/c1cccnc1)c1cnc2ccccc2n1 | i | -8.9%
Cc1c(CCOC(=O)C23CC4(C)CC(C)(CC(C)(C4)C2)C3)sc[n+]1CC(=O)c1ccccc1 | ? | ?
Cc1cc(C)c2c(CC(=O)Nc3c(C(=O)Nc4ccc(Cl)cc4)oc4ccccc34)coc2c1 | ? | ?
Cn1c(N)c(C(=O)COC(=O)C2(c3ccccc3F)CCCC2)c(=O)n(C)c1=O | nt | -14.5%
Cc1cccc(-n2c(C)cc(C(=O)C(=O)Nc3nncs3)c2C)c1 | -4.4% | 0.7%
COc1ccc(C(=O)Nc2cccnc2Sc2ccc(Cl)cc2)cc1 | -11.2% | -4.3%
COCCN1C(=O)CCC1(C)C(=O)NC1CCCCC1 (stereo not drawn) | 1.7% | 0.4%
CCSc1nnc2nc3[nH]c4c(C)cccc4c3nn12 | -28.9% | ?
CC(C)C(C(=O)NC1CCCC1)N(CC1CCCO1)C(=O)CNS(=O)(=O)c1ccccc1 (stereo not drawn) | -14.6% | -6.9%
CCCCOc1ccc(-c2c(C#N)c(N)nc(SCC(N)=O)c2C#N)cc1 | nt | ?
Cc1ccccc1C(=O)Nc1nnc(CC(=O)N/N=C/c2ccco2)s1 | i | -1.9%
CCN1CCN(c2ccc(NC(=O)c3ccc4c(c3)[nH]c(=O)n4Cc3ccc(F)cc3)cc2)CC1 | -9.1% | -17.4%
O=C(Nc1ccc(F)cc1)c1ccc(NC(=O)C2CCCO2)cc1 (stereo not drawn) | -21.8% | -6.3%
COc1cc(OC)cc(-n2c(=O)c3ccccc3n(CC(=O)NCCc3ccc(OC)c(OC)c3)c2=O)c1 | -9.1% | -0.7%
CCCCCCN1C=CC=C/C1=C\C=C(C#N)C#N | -16.8% | -0.2%
O=C(NCCO)c1cc2c(s1)CCC2 | -11.8% | -10.8%
Cc1cc(C)cc(OCCn2c(CCNC(=O)C3CCCCC3)nc3ccccc32)c1 | -2.8% | -12.7%&-15.0%
N#CCCn1cc(C(=O)CN2C(=O)C(=O)N(C3CCCC3)C2=O)c2ccccc21 | -12.3% | 5.2%
Clc1ccc(CNc2ncccn2)cc1 | -12.0% | -1.9%
NS(=O)(=O)c1ccc(CCNC(=O)COC(=O)c2ccc([N+](=O)[O-])o2)cc1 | i | 3.5%
COc1ccccc1C(=O)Nc1ccccc1C(=O)NC1CCCCC1 | -8.3% | -12.9%
c1ccc(C(=C2CCCO2)c2ccccc2)cc1 | i | -8.8%
COc1ccc(C)cc1S(=O)(=O)N1CCCCCC1 | -6.3% | 1.9%
Cc1cccc2cc(CN(Cc3ccccc3)C(=S)NCCCN(C)C)c(=O)[nH]c12 | i | -6.5%
COc1cc(NC(=O)CCc2c(C)nc3cc(-c4ccccc4)nn3c2C)cc(OC)c1OC | -14.2% | -8.2%
CCN1CCN(Cc2c(O)ccc3c(C)c(-c4ccccc4)c(=O)oc23)CC1 | -14.7% | -16.2%
COc1ccc2c(c1)CCO[C@]21O[C@H](CCO)C[C@H](O)[C@H]1O | i | 6.0%
COc1ccc(CCn2cc3c(c2-c2ccccc2Br)c(=O)n(C)c(=O)n3C)cc1OC | -4.4% | 3.7%
O=[N+]([O-])c1ccc(N/N=C/c2ccccc2)cc1 | -13.8%[7.34 µM] | 3.2%[7.34 µM]
C[C@H](CO)N1C[C@H](C)[C@H](CN(C)S(=O)(=O)c2ccccc2)Oc2c(NS(C)(=O)=O)cccc2C1=O | ? | -2.5%

# Screening data as filed in PubChem BioAssay.
